D2 PAM = human D2 receptor positive allosteric modulation | P14416 | DiscoveRx D2 beta-arrestin cells, luminescence, 90 min; 100% = 57 uM dopamine signal | potentiation, % (no concentration beside the values) | 360,000 tested, 0.23% active; active = potentiation of 50% or more; inconclusive = 30% to 50%; inactive = 30% or less;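 note: compound concentration not given in the record; tested on top of an EC20 dose of dopamine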
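D2 cells co-treated with compound plus 50 nM dopamine (EC20) for 90 min at 37 deg C to detect potentiation. Beta-arrestin recruitment was read as enzyme-fragment luminescence after 1 h at ambient temperature. Full response was set by 57 uM dopamine.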
D2 agonist = human D2 receptor agonism in beta-arrestin assay. P14416. DiscoveRx PathHunter D2 beta-arrestin, luminescence, 90 min; 100% = 57 uM dopamine signal. activation, % (test concentration not listed). 360,000 tested, 0.084% active; in the data active = activation above about 40%; inconclusive = about 15% to 40%; inactive = below about 15%; note: compound concentration not given in the record; the text of the record calls up to 30% inactive
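DiscoveRx PathHunter D2 beta-arrestin cells (2,100/well) attached overnight, then compound-stimulated 90 min at 37 C in HBSS/10 mM HEPES/0.1% Tween-20 buffer; beta-galactosidase complementation read by luminescence after 1 h at ambient temperature. Dopamine 57 uM final (EC100) as control.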
TRPML1 agonist = activates the human TRPML1 channel; 410,000 tested, 0.12% active; Q9GZU1; TRPML1-expressing cells, Ca2+ dye fluorescence, FDSS; host cell line not named in the record; reference of the full effect not given here; activation, % (no concentration beside the values); in the data active = activation above about 50%; inconclusive = about 30% to 50%; inactive = below about 30%; note: 0% is about no effect; the text of the record puts the active cut at 80%
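Agonist activity was taken from a 110 s kinetic Ca2+ dye read on the FDSS after pinning compounds onto TRPML1-DL cells. The cells were seeded at 1,500/well with Tet inducer, incubated about 16 h, then dye-loaded at room temperature.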
Six1-Eya2 inh = blocks human Six1 binding to Eya2; Q15475+O00167; AlphaScreen GST-Six1/His-Eya2 binding, biochemical; hits give low values; control for the full effect not named in the record; activity change, % (test concentration not listed); 360,000 tested, 0.56% active; AID 651725; in the data active = activity change below about -65%; inconclusive = about -30% to -65%; inactive = above about -30%; note: % is set by controls: 0 for no effect and ±100 for the full control effect; compound concentration not given in the record
Target sequence (O00167 whole entry, looked up): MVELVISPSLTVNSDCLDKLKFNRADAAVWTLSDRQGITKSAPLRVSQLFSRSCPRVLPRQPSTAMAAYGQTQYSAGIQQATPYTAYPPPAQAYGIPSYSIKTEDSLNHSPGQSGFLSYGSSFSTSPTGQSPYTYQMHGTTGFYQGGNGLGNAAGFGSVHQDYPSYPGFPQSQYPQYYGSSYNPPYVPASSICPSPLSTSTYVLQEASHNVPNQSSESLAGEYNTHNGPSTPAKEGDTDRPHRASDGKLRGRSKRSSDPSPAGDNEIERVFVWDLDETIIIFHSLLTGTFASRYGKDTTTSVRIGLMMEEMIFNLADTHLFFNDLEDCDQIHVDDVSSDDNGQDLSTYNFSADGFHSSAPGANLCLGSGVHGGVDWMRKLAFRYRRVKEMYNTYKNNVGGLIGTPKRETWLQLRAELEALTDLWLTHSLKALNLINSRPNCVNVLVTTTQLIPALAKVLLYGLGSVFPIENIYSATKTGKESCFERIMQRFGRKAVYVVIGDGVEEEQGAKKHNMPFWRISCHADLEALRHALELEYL
Target sequence (Q15475 whole entry, looked up): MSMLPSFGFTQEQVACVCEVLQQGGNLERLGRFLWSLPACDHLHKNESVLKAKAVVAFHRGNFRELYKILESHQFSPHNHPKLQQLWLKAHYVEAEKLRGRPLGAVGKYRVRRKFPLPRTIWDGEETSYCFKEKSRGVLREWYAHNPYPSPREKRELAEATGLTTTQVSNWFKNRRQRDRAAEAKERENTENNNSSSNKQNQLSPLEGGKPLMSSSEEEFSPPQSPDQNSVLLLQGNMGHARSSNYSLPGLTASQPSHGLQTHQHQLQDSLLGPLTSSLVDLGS
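Compounds are tested against tagged Six1 and Eya2 proteins bridged by glutathione donor and nickel acceptor beads; after a one-hour incubation at 37 °C without light, AlphaScreen emission is recorded.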
CtBP-E1A inh = blocks the CtBP interaction with E1A; AID 651724; AlphaScreen GST-E1A/His-CtBP binding, 1536-well; hits give low values; control for the full effect not named in the record; 340,000 tested, 0.49% active; activity change, % (test concentration not listed); in the data active means activity change below about -65%; inconclusive means about -30% to -65%; inactive means above about -30%; note: % is set by controls: 0 for no effect and ±100 for the full control effect; compound concentration not given in the record
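In 5 uL wells, 23 nL compound meets equimolar GST-E1A and His-CtBP (5X stock 125 nM each) for 2 h, 37 °C. Beads (5X, 50 ug/mL) then 1 h, 37 °C, dark.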
PINK1 expr mod = PINK1 expression modulation. PINK1 immunofluorescence, high-content cytometry, 24 h. Potency, µM (highest dose often 76.6 µM), for inactives: at the highest dose activation (PINK1 increase), usual class: activators. 410,000 tested, 0.2% active. AID 624263; active = well fitted activation curve with a large enough effect; inconclusive = small, poorly fitted or top-dose-only effect; inactive = flat fitted curve, though single readings scatter; cell line not stated here;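 note: potency is the fitted concentration of half-maximal effect; % of control where 0% means no effect; nearly all actives have a fitted effect of over 65% in size; a mitochondrial uncoupler was the plate control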
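Fluorescence from anti-PINK1 antibody, together with nuclear and cell stains, was scanned on a laser-scanning cytometer. Before staining, stable-line cells were incubated 24 hours with compounds at 5 concentrations; primary antibody 12 h at 10 degrees C.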
Starred values were filed as active, the others as inactive; ? = inconclusive; nt = no result given; & = joins results of further samples; [ ] = dose if it differs, or a comment. Random draw from the library (roughly 1.3% active in at least one column).

# | SMILES | D2 PAM | D2 agonist | TRPML1 agonist | Six1-Eya2 inh | CtBP-E1A inh | PINK1 expr mod
1 | COc1ccccc1/C=C(\NC(=O)c1ccc(OC)c(OC)c1)C(=O)Nc1ccc([N+](=O)[O-])cc1 | -9.5 | -5.2 | 0.2 | -8.7 | -11.3 | -0.5%
2 | NC(=O)C1CCN(C(=O)c2cc(S(=O)(=O)N3CCOCC3)ccc2Cl)CC1 | -4.7 | -0.6 | 0.1 | 1.2 | 2.6 | 1.5%
3 | CC1(OC(=O)C2CCCC2)C(=O)C=C2C=C(c3ccsc3)N(Cc3ccco3)C=C2C1=O (stereo not given) | -3.1 | 4.6 | 0.3 | -10.3 | -2.1 | 0.5%
4 | O=C(Nc1cccnc1)c1ccc([N+](=O)[O-])s1 | -0.7 | ? | -0.8 | -1.7 | -14.6 | ?
5 | COc1ccccc1NC(=S)NC(=O)c1ccc(Cn2cc(Br)cn2)cc1 | -0.7 | -1.1 | 1.1 | -6.9 | -8.0 | -0.7%
6 | COC(=O)C1CC2=C(CCC2=O)N(c2ccccc2)C1=O (stereo not given) | -0.4 | -0.6 | 1.4 | 5.3 | 4.3 | -0.1%
7 | O=c1c(-c2ccccc2)nnc2sc(COc3ccc(Br)cc3)nn12 | 0.7 | 6.5 | 1.2 | 8.7 | -14.4 | -1.9%
8 | Cc1c(C(=O)NCc2ccccc2)oc2ccc(S(=O)(=O)N3CCCC3)cc12 | 2.4 | -0.1 | 0.2 | 2.3 | -11.3 | 0.7%
9 | CC(C)(C)c1cc(CN2CCOCC2)c(C(=O)O)o1 | -3.9 | 2.1 | -0.5 | 5.9 | 8.3 | 1.0%
10 | Cc1cc(C(=O)N/N=C/c2ccc(-c3ccccc3Cl)o2)n[nH]1 | -17.6 | -3.9 | 1.9 | ? | -24.3 | 4.5%
11 | CC(=O)c1ccc(NS(=O)(=O)c2cc3c(cc2C)N(C)CCO3)cc1 | 1.9 | 4.7 | 0.9 | -4.2 | -3.0 | -0.5%
12 | CC1CCCC(NC(=O)COC(=O)c2ccccc2NC(=O)c2ccco2)C1C (stereo not given) | 0.3 | -3.2 | 0.6 | -1.9 | 2.9 | 21.0%
13 | OCC1(CCOc2ccccc2)CCN(Cc2ccccc2C(F)(F)F)CC1 | -22.7 | 3.5 | 0.2 | -8.0 | -1.5 | 15.1%
14 | CCOC(=O)C1CCCN(C(=O)c2cccs2)C1 (stereo not given) | -13.9 | -1.9 | 0.4 | 9.6 | -2.5 | 0.0%
15 | O=C(c1ccccc1)C1CN(Cc2ccccc2)CCC1(O)c1ccccc1 (stereo not given) | -11.3 | 2.1 | -0.1 | -9.8 | 2.9 | 2.3%
16 | CCC1(C)Cc2c(sc3[nH]c(=S)n(Cc4ccccc4)c(=O)c23)CO1 (stereo not given) | -2.8 | -3.1 | -1.3 | -7.5 | -3.3 | -2.9%
17 | CC(CCc1ccccc1)NC(=O)CNC(=O)N1CC(=O)Nc2ccccc21 (stereo not given) | -3.7 | 3.8 | 0.0 | -5.7 | -10.4 | -0.9%
18 | CCCCN1C(=S)NC[C@@H]1Cc1ccccc1 | -6.0 | 0.0 | -0.6 | 4.3 | 2.3 | 1.0%
19 | O=C(COC(=O)c1cccnc1)Nc1cccc2ccccc12 | -4.8 | -6.6 | 0.6 | 6.4 | 4.8 | -0.5%
20 | COc1ccc(C(c2oc(CO)cc(=O)c2O)c2oc(CO)cc(=O)c2O)cc1OC | -2.1 | 0.3 | -0.4 | -10.1 | -2.2 | -1.4%
21 | Cc1c(C(=O)NC(=S)Nc2ccc(NC(=O)c3cccs3)cc2)oc2ccccc12 | 2.3 | -3.8 | nt | 0.0 | 7.9 | 4.3%
22 | COc1ccc(-c2cn(CCc3c[nH]c4ccccc34)nn2)cc1 | 0.7 | 2.3 | 1.6&-0.8 | 8.7 | 20.2 | 0.6%
23 | Cc1ccc(CS(=O)(=O)CCC(=O)NCCCOC(C)C)cc1 | -6.9 | 0.2 | -0.6 | 1.2 | 10.3 | ?
24 | CCC(=O)N/C(=N/c1nc(C)cc(C)n1)Nc1ccccc1 | -26.7 | -6.9 | 1.4 | 32.6 | 2.7 | -1.8%
25 | COc1ccccc1-c1nnc(NC(=O)CSc2nncn2C)s1 | -10.9 | -5.2 | 0.2 | 11.8 | -0.5 | 5.6%
26 | CCn1ncc(C2=NOC(C(=O)Nc3cccnc3)C2)c1C (stereo not given) | -7.8 | -2.9 | 0.2 | -0.2 | 1.3 | 6.8%[38.3 µM]
27 | Cc1sc2nc(CN3CCOCC3)nc(NS(=O)(=O)c3ccccc3)c2c1C | 0.6 | -1.6 | -0.5 | 0.5 | 5.6 | 0.6%
28 | COc1ccc(CCNC(=O)C2CCC(=O)N(C3CCCCCC3)C2)cc1 (stereo not given) | -8.2 | 8.4 | -0.2 | 15.6 | -6.3 | -0.9%
29 | CN(c1ccccc1)S(=O)(=O)c1ccc(C(=O)NCC(c2ccco2)N2CCCCC2)cc1 (stereo not given) | -28.7 | -5.3 | 0.4 | -4.9 | -10.9 | 2.3%
30 | Cc1cc(C)nc(Nc2n[nH]c(-c3ccc(C(C)(C)C)cc3)n2)n1 | -5.3 | -1.5 | 0.0 | -3.6 | -0.5 | 11.3%
31 | O=C(c1ccccc1O)N1CCOCC1 | -6.3 | -2.6 | 0.2 | 3.1 | 10.8 | 0.1%
32 | O=C1C=C(N2CCCCCC2)C(=O)N1c1ccc(Cl)cc1 | -5.9 | -1.4 | 1.6 | 8.6 | 44.0 | 0.0%
33 | COc1ccccc1OCCOc1ccc(/C=C2\C(=N)N3N=C(C)SC3=NC2=O)cc1 | 0.5 | 1.1 | 0.9 | 4.7 | 1.2 | 6.5%
34 | CC(C)(C)NC(=O)NC(=O)COC(=O)c1cccc(F)c1 | 2.2 | 2.4 | -0.7 | 19.0 | 1.9 | 1.2%
35 | COc1ccc(NC(=O)N(C)C[C@H]2Oc3ccc(NC(=O)Nc4c(C)noc4C)cc3C(=O)N([C@H](C)CO)C[C@H]2C)cc1 | -1.9 | -0.3 | 0.3 | 12.5 | 4.8 | 0.0%
36 | O=C(C1CC1)N1CCc2cc(Br)cc(S(=O)(=O)NCCN3CCOCC3)c21 | -8.6 | 0.0 | -0.9 | -1.3 | -7.0 | -1.1%
37 | Cc1cc(C(=O)NC2CCCCC2)c2cc(F)ccc2n1 | 26.5 | 2.2 | 1.8 | 5.0 | nt | -0.4%
38 | CN(C)C=NC(=O)c1cc(C(=O)c2ccc(C(C)(C)C)cc2)c[nH]1 | -6.4 | -2.0 | -0.3 | -3.7 | 6.8 | 3.6%
39 | COc1ccc(-c2cc(C(F)(F)F)nc(SCC(=O)NCc3ccco3)n2)cc1OC | 0.8 | -1.9 | -1.0 | 4.4 | -10.0 | 5.7%
40 | O=C(N/N=C/c1ccc(Cl)cc1)c1ccc2nc[nH]c2c1 | -3.5 | 2.8 | -0.6 | -5.0 | -3.7 | 10.2%
41 | CCOC(=O)c1c(C)nc2c(C)cccn12 | 2.0 | 0.3 | -0.4 | -2.0 | 9.5 | 0.9%
42 | O=C1C2C3C=CC(CC3)C2C(=O)N1c1ccccc1 (stereo not given) | 4.5 | -1.7 | nt | 9.7 | nt | -0.8%
43 | CC(C)N(CC#CCC1(O)c2ccccc2-c2ccccc21)CCO | -14.3 | -3.4 | -0.4 | 1.2 | 3.9 | -5.8%[38.3 µM]
44 | CC(C)NC(=S)NC(=O)c1ccc(Cl)cc1Cl | 14.1 | 3.7 | 1.8 | 5.1 | 7.6 | 4.1%
45 | Cc1ccc(C2=CC(c3ccccc3)n3ncnc3N2)cc1 (stereo not given) | ? | 2.2 | 1.8 | -6.1 | 6.3 | 0.5%
46 | O=C(O)CC(Cc1ccc(Cl)cc1)C(=O)Nc1ccc([N+](=O)[O-])cc1 (stereo not given) | -0.4 | 0.3 | -0.4 | 2.6 | 3.8 | 0.2%
47 | CC(=O)N1CCc2cc(S(=O)(=O)NC3CCCc4ccccc43)ccc21 (stereo not given) | -3.4 | 2.8 | 0.9 | 0.0 | -7.7 | 1.1%
48 | CCOP(=O)(OCC)c1nc(/C=C/c2ccccc2)oc1NCc1ccccc1 | -24.7 | -3.1 | 1.0 | 27.6 | 44.3 | -1.0%
49 | Cc1cc(O)ccc1Nc1nc(-c2sc(N)nc2C)cs1 | 0.4 | 9.0 | 1.8 | ? | -66.7* | 6.1%[38.3 µM]
50 | O=C(CN1C(=O)S/C(=C\c2ccccc2F)C1=O)Nc1ccccc1O | 1.7 | -1.2 | nt | 3.8 | 2.9 | 11.2%

CtBP-E1A inh: hit marks shown above
no.	SMILES	D2 PAM	D2 agonist	Six1-Eya2 inh	CtBP-E1A inh	PINK1 expr mod
49	Cc1cc(O)ccc1Nc1nc(-c2sc(N)nc2C)cs1	0.4	9.0	?	-66.7*	6.1%[38.3 µM]

Continuation:
# | SMILES | D2 PAM | D2 agonist | TRPML1 agonist | Six1-Eya2 inh | CtBP-E1A inh | PINK1 expr mod
51 | Cc1cccc(-n2ncc3c2CCCC3NC(=O)CCN2Cc3ccccc3C2=O)c1C (stereo not given) | -34.1 | 0.3 | 0.8 | 18.5 | 4.5 | -0.1%
52 | CCN1CCN(C(CNS(=O)(=O)c2ccc(OC)cc2)c2cccnc2)CC1 (stereo not given) | -6.5 | -7.8 | 0.1 | 8.5 | -4.9 | -1.0%
53 | Cc1ccc(CNC(=O)c2ccc(N3CCC4(CC3)CC(c3ccccc3)=NO4)c(NC(=O)c3ccco3)c2)cc1 | -7.4 | -3.0 | 0.2 | -0.5 | -0.6 | 0.1%
54 | Cc1cc(-c2ccccc2)nc(Oc2ccc(C(C)(C)C)cc2)c1S(C)(=O)=O | -20.8 | -6.5 | 1.1 | 10.4 | 3.6 | 5.9%
55 | CCOC(=O)c1c(NC(=O)c2cccnc2)sc(C)c1C | -13.3 | -1.5 | 0.6 | 6.2 | 6.4 | -3.0%[38.3 µM]
56 | Cc1ccc(S(=O)(=O)c2nc(Cc3ccccc3)oc2N2CCOCC2)cc1 | -9.4 | -4.5 | 0.3 | -5.2 | 3.1 | 0.3%
57 | Nc1cc(=O)[nH]c(SCC(=O)N2CCCc3ccccc32)n1 | -5.2 | -0.7 | -0.4 | -2.5 | -12.5 | -6.0%[38.3 µM]
58 | Cc1occc1-c1nnc(SCC(=O)O)n1-c1ccccc1 | -9.5 | -0.1 | 0.9 | -1.3 | nt | 1.5%
59 | CC(C)C(OC(=O)c1nsc(Cl)c1Cl)C(=O)NC(C)(C)C (stereo not given) | -1.6 | -2.3 | 0.7 | 7.0 | -6.4 | 2.6%

Compound profiles, as listed above.
`CCOC(=O)c1c(NC(=O)c2cccnc2)sc(C)c1C` is entered as D2 PAM = -13.3; D2 agonist = -1.5; TRPML1 agonist = 0.6; Six1-Eya2 inh = 6.2; CtBP-E1A inh = 6.4; PINK1 expr mod = -3.0%[38.3 µM]
`CC(C)C(OC(=O)c1nsc(Cl)c1Cl)C(=O)NC(C)(C)C` (stereo not given) is entered as D2 PAM = -1.6; D2 agonist = -2.3; TRPML1 agonist = 0.7; Six1-Eya2 inh = 7.0; CtBP-E1A inh = -6.4; PINK1 expr mod = 2.6%
